Compound activity deposited in PubChem BioAssay by National Center for Advancing Translational Sciences (NCATS).
Methyltransferases = Primary Screen for Target Class Profiling of Small Molecule Inhibitors of Methyltransferases | purified enzyme, MTase-Glo SAH luminescence; hits give low values | calls only at 40 µM | 3.9% of 25,000 active | AID 1745853, 2022; active = -50% or lower on at least one of six enzymes; inconclusive = the cases between; inactive = as a rule above -30% on all six;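 further: enzymes were COMT GAMT GNMT HNMT NNMT and PNMT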
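Each enzyme was reacted with SAM and its substrate, with compounds tested once at 40 uM; SAH formed was read by MTase-Glo luminescence.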
Calls only; i = inactive; ? = inconclusive; + = active, no number. On the % scale 0 is the no-effect control and ±100 the full control effect.

CC(C)OCCCn1c(=O)c2ccccc2n2c(CCC(=O)N3CCN(c4ccccc4F)CC3)nnc12
  Methyltransferases = i
COc1cc(CN(CCN)C(=O)c2cccs2)ccc1OCc1ccccc1
  Methyltransferases = i
Cc1coc2c1CC1OC1(C)CCC1OC1(C)C2 (stereo unspecified)
  Methyltransferases = i
CCOc1ccc(C2c3cccn3-c3sc4c(c3CN2C(=O)Nc2cc(F)ccc2F)CCCC4)cc1 (stereo unspecified)
  Methyltransferases = i
COCCN1Cc2ccc(NCC(C)C)nc2C(C)(C(=O)NC2CCC2)C1 (stereo unspecified)
  Methyltransferases = i
CC(=O)N1CCn2c(nn(-c3ccncc3)c2=O)C1
  Methyltransferases = i
CN(C)c1cc(N2CCCC(NS(C)(=O)=O)C2)ncn1 (stereo unspecified)
  Methyltransferases = i
CC1(C(=O)NC2CCCCC2)Cn2c(cc3ccccc32)C(=O)N1C1CCCCCC1 (stereo unspecified)
  Methyltransferases = i
Nc1ncnc2c1nc(Br)n2C1OC2COP(=O)(O)O[C@@H]2C1O (stereo partly specified)
  Methyltransferases = i
CC(C)C1CCC(C(=O)N[C@H](Cc2ccccc2)C(=O)O)CC1 (stereo partly specified)
  Methyltransferases = ?

O=C(CC1C(=O)Nc2ccccc21)OC[C@H]1O[C@@H](OCCc2ccc(O)cc2)[C@H](O)[C@@H](O)[C@@H]1O (stereo partly specified)
  Methyltransferases = i
O=C(NC[C@H]1OC[C@@H](NC2CCOCC2)[C@@H]1O)N1CCOCC1
  Methyltransferases = i
COC(=O)C1=COC(OC2OC(CO)C(O)C(O)C2O)C2C(COC(=O)/C=C/c3ccc(O)c(O)c3)C(O)C(O)C12 (stereo unspecified)
  Methyltransferases = i
C=CC1(C)CC2=CCC3C(C)(C(=O)O)CCCC3(C)C2CC1OC(C)=O (stereo unspecified)
  Methyltransferases = i
CCCS(=O)(=O)N1CCCC(OCc2noc(C3CCOCC3)n2)C1 (stereo unspecified)
  Methyltransferases = i
COc1ccc(/C=C/C(=O)N2CCCC2)cc1
  Methyltransferases = i
COc1ccc(OC)c(CCN2C(=O)c3cc4occc4n3CC2(C)C(=O)NC2CCC(C)CC2)c1 (stereo unspecified)
  Methyltransferases = i
O=C(N[C@H]1CO[C@H]2[C@@H]1OC[C@@H]2Nc1nccc(-c2ccc(-c3ccccc3)cc2)n1)C1CCCCC1
  Methyltransferases = i
O=C(NCC1(O)CCCNCC1)c1cccc(-c2ccc(F)cc2)c1 (stereo unspecified)
  Methyltransferases = i
Cc1ccc(CNC(=O)c2cc3n(n2)CC(C)(C(=O)NC2CCCC2)N(C)C3=O)cc1 (stereo unspecified)
  Methyltransferases = i

Five records drawn at random from the list so far, as already listed:
CC(C)OCCCn1c(=O)c2ccccc2n2c(CCC(=O)N3CCN(c4ccccc4F)CC3)nnc12
  Methyltransferases = i
CCCS(=O)(=O)N1CCCC(OCc2noc(C3CCOCC3)n2)C1 (stereo unspecified)
  Methyltransferases = i
COc1ccc(OC)c(CCN2C(=O)c3cc4occc4n3CC2(C)C(=O)NC2CCC(C)CC2)c1 (stereo unspecified)
  Methyltransferases = i
COC(=O)C1=COC(OC2OC(CO)C(O)C(O)C2O)C2C(COC(=O)/C=C/c3ccc(O)c(O)c3)C(O)C(O)C12 (stereo unspecified)
  Methyltransferases = i
COCCN1Cc2ccc(NCC(C)C)nc2C(C)(C(=O)NC2CCC2)C1 (stereo unspecified)
  Methyltransferases = i

(listing goes on)
Cc1ccc(C(=O)COC(=O)C(Cc2c[nH]c3ccccc23)NC(=O)c2ccc(Br)cc2)cc1 (stereo unspecified)
  Methyltransferases = i
COc1ccccc1NC(=O)c1sc(=S)n2c1[nH]c(=O)c1ccc(Cl)cc12
  Methyltransferases = i
CC12CCC(=O)C=C1C(O)CC1C2C(O)CC2(C)C1CC[C@]2(O)C(=O)CO (stereo partly specified)
  Methyltransferases = i
CCc1nc(CN2CCOC(c3ccc4cc(OC)ccc4c3)C2)no1 (stereo unspecified)
  Methyltransferases = i
COc1ccc(-c2nc(C)nc3c2CCN([S+](=O)([O-])c2cccs2)CC3)cc1
  Methyltransferases = i
Cc1ccc(NC(=O)CSc2nnc3n(CCC(C)C)c(=O)c4ccccc4n23)cc1
  Methyltransferases = i
CC1(C(=O)NC2CCCC2)Cn2c(c(-n3cccc3)c3ccccc32)C(=O)N1Cc1ccco1 (stereo unspecified)
  Methyltransferases = i
CCS(=O)(=O)N1C[C@@H](C(=O)NCc2ccc(C)o2)[C@H](c2ccncc2)C1
  Methyltransferases = i
CC1(C(=O)NC2CCCC2)Cn2c(ccc2-c2ccco2)C(=O)N1c1ccc2c(c1)OCO2 (stereo unspecified)
  Methyltransferases = i
CN1C(=O)c2cc(C(=O)NC3CC3)nn2CC1(C)C(=O)NCc1ccccc1 (stereo unspecified)
  Methyltransferases = i

O=C(c1nc(-c2cccnc2)c2ccccn12)N1CCOCC1
  Methyltransferases = i
N=C(N)SCCN
  Methyltransferases = +
CC1(C(=O)N2CCC(c3ccccc3)CC2)CCc2cnc(Nc3ccncc3)nc21 (stereo unspecified)
  Methyltransferases = i
CC(C)Cn1c(=O)c2ccccc2n2c(=O)n(CC(=O)NC3CCCCC3)nc12
  Methyltransferases = i
CC(C)C(CO)Nc1nc(Nc2ccc(C(=O)O)c(Cl)c2)c2ncn(C(C)C)c2n1 (stereo unspecified)
  Methyltransferases = ?
Cc1ccccc1Cn1nc2n(CCc3ccccc3)c(=O)c3ccccc3n2c1=O
  Methyltransferases = i
C=C1C[C@H](O)[C@@H](O)[C@@]2(C)C1[C@@H](O)[C@H]1OC(=O)C3[C@@H](C)[C@@H](O)[C@H](O)C2[C@]31C (stereo partly specified)
  Methyltransferases = i
C=C1C(=O)O[C@@H]2[C@H]1CC[C@H](C)[C@]1(CCC(=O)O1)C2(C)O (stereo partly specified)
  Methyltransferases = i
COCCNc1nc2c(S(=O)(=O)c3ccc(C(C)C)cc3)nnn2c2ccccc12
  Methyltransferases = i
Cc1ccc(Cn2c(=O)c3ccccc3n3c(CCC(=O)N4CCN(c5ccccn5)CC4)nnc23)cc1
  Methyltransferases = i

Not a retest: three of the compounds above.
C=C1C(=O)O[C@@H]2[C@H]1CC[C@H](C)[C@]1(CCC(=O)O1)C2(C)O (stereo partly specified)
  Methyltransferases = i
COCCNc1nc2c(S(=O)(=O)c3ccc(C(C)C)cc3)nnn2c2ccccc12
  Methyltransferases = i
Cc1ccc(Cn2c(=O)c3ccccc3n3c(CCC(=O)N4CCN(c5ccccn5)CC4)nnc23)cc1
  Methyltransferases = i

(further entries)
molecule | Methyltransferases
COc1ccc(OC)c2c1cc1n2CC(C)(C(=O)NC2CCCCC2)N(CCc2ccccc2)C1=O (stereo unspecified) | i
CCc1ccc(N2C(=O)c3cc4occc4n3CC2(C)C(=O)NC2CCCC(C)C2C)cc1 (stereo unspecified) | i
CCCn1c(=O)c2ccc(C(=O)NC3CCCC3)cc2n2c(=O)n(CC(=O)Nc3ccccc3C)nc12 | i
CS(=O)(=O)N1CCC2(CC1)CN(C(=O)c1ccc(Cl)cc1)CCO2 | i
CCN1C(=O)c2cc(C(=O)NCCCOC)nn2CC1(C)C(=O)NC1CCCC1 (stereo unspecified) | i
Cc1ccc(CN2CCn3c(nn(-c4ccncc4)c3=O)C2)cc1 | i
C[C@@H](NC(=O)[C@@H]1C[C@@H](NS(=O)(=O)c2cccs2)CCN1C(=O)c1ccco1)C(N)=O | i
CCOC(=O)c1cc2n(n1)CC(C)(C(=O)NC1CCCCCC1)N(c1cccc(SC)c1)C2=O (stereo unspecified) | i
CC(C)c1cc(C(=O)NCc2cccnc2Oc2cccc(C(F)(F)F)c2)n[nH]1 | i
CCCn1c(=O)c2ccc(C(=O)NC3CCCCC3)cc2n2c(=O)n(Cc3cccc(C)c3)nc12 | i
O=c1cc(-c2ccccc2F)[nH]c2cc3c(cc12)OCO3 | i
CN(C)C[C@@H]1CN(c2ccncn2)C[C@H]1NC(=O)c1nccc2ccccc12 | i
O=C(/C=C/N1C[C@@H]2C[C@@H]1CN2c1ccccn1)c1ccccc1O | i
COCCNC(=O)CC[C@]12CC[C@](C)(O)C[C@H]1C(C)(C)C[C@@H]2NS(=O)(=O)c1ccc(C)cc1 | i
CCc1cc2c(cc3n2CC(C)(C(=O)NC2CCCCCC2)N(Cc2cccs2)C3=O)s1 (stereo unspecified) | i
COc1cccc(CN2Cc3cc(NC(=O)Cc4cccs4)ccc3OCC2=O)c1OC | i
O=C(c1ccc(F)cc1)N1CCC2(CNc3ccccc3[S+](=O)([O-])N2)C1 (stereo unspecified) | i
CC1CCN(S(=O)(=O)c2ccc3c(ccn3CCC(=O)N3CCN(c4ccccn4)CC3)c2)CC1 | i
C=C(C(=O)O)C1CCC2(C)CCC(O)C(=C)C2C1 (stereo unspecified) | ?
Cc1ccc(CNC(=O)N2CCCC(c3nn[nH]n3)C2)cc1 (stereo unspecified) | i
CC(C)CCNC(=O)Cn1ccc2cc(S(=O)(=O)N3CCCC3)ccc21 | i
CO/N=C(/C(=O)N[C@@H]1C(=O)N2C(C(=O)O)=C(CSC(=O)c3ccco3)CS[C@H]12)c1csc(N)n1 | i
COc1ccc(C)cc1NC(=O)Cn1c(=O)oc2cc(S(=O)(=O)N3CCCC3)ccc21 | i
CCCC(C(=O)O)c1c(C)nc2ccc(Cl)cc2c1-c1ccccc1 (stereo unspecified) | ?
C=CCOc1cccc(-c2nnc(CCC(=O)NC(C)CC)c(=O)[nH]2)c1 (stereo unspecified) | i
CC(C)C1=NOC2(CCN(C(=O)C3CCCC3)CC2)C1 | i
CN(C)c1cccc(-c2nc(-c3nnn4c3COC(c3ccccc3Cl)C4)no2)c1 (stereo unspecified) | i
Fc1ccc2c(c1)c1c3n2CCNC3CCC1 (stereo unspecified) | i
O=C1CCC[C@@H]2[C@@H]3CCC[N@+]4([O-])CCC[C@H](CN12)[C@H]34 | ?
CC(=O)O[C@H]1[C@@H](O)[C@H](O[C@H]2[C@@H]3C=CO[C@@H](O[C@H]4O[C@@H](CO)[C@H](O)[C@@H](O)[C@@H]4O)[C@@H]3[C@@]3(CO)O[C@@H]23)O[C@@H](C)[C@@H]1OC(=O)/C=C/c1ccccc1 | i
CCCn1c(=O)c2cc(Cl)ccc2n2c(=O)n(CC(=O)Nc3ccc4c(c3)OCCO4)nc12 | i
COCc1ncc(C)n1CCNC(=O)c1ccc(OC)nc1OC | i
C[C@H]1CC[C@@]2(OC1)O[C@H]1CC3C4CC[C@H]5C[C@@H](O)CC[C@]5(C)C4=CC(=O)[C@]3(C)[C@H]1[C@@H]2C (stereo partly specified) | i
CC(NC(=O)c1ccc2c(=O)nc3c(-c4ccccc4)n[nH]n3c2c1)c1ccccc1 (stereo unspecified) | i
COc1ccccc1-c1ccc(C(=O)N2CCC(N[S+](=O)([O-])c3ccccc3)CC2)cc1 | i
CCOC(=O)c1cc2n(n1)CC(C)(C(=O)NCCCOC)N(Cc1ccc3c(c1)OCO3)C2=O (stereo unspecified) | i
C[S+](=O)([O-])N1CCC2(CC1)C(=O)NN=C2c1ccccn1 | i
COc1cccc(OC)c1C(=O)N[C@@H]1C(=O)N2[C@@H]1SC(C)(C)[C@@H]2C(=O)O | i
COc1ccc(C(=O)NC[C@H]2O[C@@H](CC(=O)Nc3ccccc3)[C@H](O)[C@@H]2O)cc1 | i
CCCn1c(=O)c2ccccc2n2c(SCC(=O)Nc3cc(F)ccc3F)nnc12 | i
CCCn1c(=O)c2c(ncn2C)n(CCC)c1=O | i
CCCNC(=O)N1Cc2c(sc3c2CCCC3)-n2cccc2C1c1ccc(Cl)cc1 (stereo unspecified) | i
COCC[C@]1(O)CCN(C(=O)CCCc2ccccc2)C[C@H]1C | i
CCc1ccc(NC(=O)Cn2nc3n(CCCOC(C)C)c(=O)c4ccccc4n3c2=O)cc1 | i
CCCC1c2cccn2CCN1C(=O)Nc1ccc(C)cc1 (stereo unspecified) | i
CCOc1ccccc1CN1CCC2(Cc3ccccc3CNC2=O)C1 (stereo unspecified) | i
C[C@@H]1O[C@@H](O[C@@H]2[C@@H](O)[C@H](O[C@@H]3[C@@H](O)[C@@H](O)[C@H](O[C@H]4[C@H](OC(=O)[C@]56CCC(C)(C)C[C@H]5C5=CCC7[C@@]8(C)C[C@H](O)[C@H](O[C@@H]9O[C@H](C(=O)O)[C@@H](O)[C@H](O)[C@H]9O)[C@@](C)(CO)C8[C@H](O)C[C@@]7(C)[C@]5(C)C[C@H]6O)O[C@@H](CO)[C@@H]4O)O[C@H]3C)OC[C@H]2O)[C@H](O)[C@H](O)[C@H]1O (stereo partly specified) | i
CCCC1c2ccc(C)n2CCN1C(=O)Nc1ccc(C)c(F)c1 (stereo unspecified) | i
CC[C@@H](C)[C@H]1O[C@]2(CC[C@@H]1C)C[C@@H]1C[C@@H](C/C=C(\C)[C@@H](O[C@H]3C[C@H](OC)[C@@H](O[C@H]4C[C@H](OC)[C@@H](O)[C@H](C)O4)[C@H](C)O3)[C@@H](C)/C=C/C=C3\CO[C@@H]4[C@H](O)C(C)=C[C@@H](C(=O)O1)[C@]34O)O2 | ?
CCCn1c(=O)c2ccc(C(=O)NC(C)CC)cc2n2c(=O)n(Cc3ccccc3C)nc12 (stereo unspecified) | i
CN1CCCCCCN(C(=O)c2cc(CN3CCOCC3)on2)[C@H]2CCC[C@H]2C1=O | i
C[C@H](N)C(=O)N[C@@H](Cc1ccc(O)cc1)C(=O)N1CCC[C@H]1C(=O)NCC(=O)N[C@@H](CCCCN)C(=O)N[C@@H](Cc1ccccc1)C(N)=O | i
CC(C)CCn1c(=O)c2ccc(C(=O)NCC(C)C)cc2n2c(=O)n(CC(=O)NC(C)(C)C)nc12 | i
CC(=O)Nc1ccc(CN2CC(Oc3ccc4c(c3)OCO4)C2)cc1 | i
COCC(NC(=O)c1ccc2nc(C3CCCCC3)oc2c1)c1ccnn1C (stereo unspecified) | i
CCCn1c(C)c(CC(=O)NCC2COCCO2)c2c1CC(C)(C)CC2=O (stereo unspecified) | i
COc1ccc(CN2C(=O)c3cc4sccc4n3CC2(C)C(=O)NC2CCCC2)cc1 (stereo unspecified) | i
CCOc1ccc(C(=O)Cn2nc3n(CC(C)C)c(=O)c4ccc(C(=O)NCC(C)C)cc4n3c2=O)cc1 | i
COc1cccc(NC(=O)CCc2nnc3n(CCc4ccccc4)c(=O)c4ccccc4n23)c1 | i

This is a subset; the hit share may differ from the screen's.
